Assay outcomes from PubChem.
VDR inhibitor = Inhibitors of the vitamin D receptor (VDR): qHTS; Potency, µM, without a hit: max response, negative = inhibition, hits mostly inhibitors; 400,000 tested, 0.93% active; AID 504847, 2011; VDR-SRC2-3 peptide fluorescence polarization, 2 h; Vitamin D3 receptor (Homo sapiens), P11473; active = well fitted inhibition curve with a large enough effect; inconclusive = small, poorly fitted or top-dose-only effect, or another doubt; inactive = no such curve, though single readings can be large or run the other way; also: series mostly up to about 120 µM
Target sequence (P11473 whole entry, looked up): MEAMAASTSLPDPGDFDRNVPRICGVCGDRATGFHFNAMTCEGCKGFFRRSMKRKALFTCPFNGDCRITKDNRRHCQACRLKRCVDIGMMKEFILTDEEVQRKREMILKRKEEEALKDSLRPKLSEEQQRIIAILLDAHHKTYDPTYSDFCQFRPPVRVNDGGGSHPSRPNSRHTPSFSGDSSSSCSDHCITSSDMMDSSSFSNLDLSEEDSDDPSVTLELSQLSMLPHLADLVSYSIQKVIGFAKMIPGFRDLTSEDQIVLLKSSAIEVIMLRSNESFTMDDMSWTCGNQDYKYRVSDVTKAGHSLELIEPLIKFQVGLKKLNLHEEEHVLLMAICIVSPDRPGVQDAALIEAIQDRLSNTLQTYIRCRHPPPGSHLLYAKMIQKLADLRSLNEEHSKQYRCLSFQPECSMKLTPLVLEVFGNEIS
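Fluorescence polarization assay measuring small-molecule disruption of VDR binding to the coregulator peptide SRC2-3. Compounds were pin-transferred (23 nl) into the reagent mix and incubated 2 h at room temperature before reading.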
The depositor's hits bear a star; ? = inconclusive; & = joins results of further samples; [ ] = another dose, or the depositor's remark. % is scaled to controls: 0 for no effect and ±100 for the full control effect; potency is read from the fitted curve at half-maximal effect.

Compound	VDR inhibitor
CC(C)CNS(=O)(=O)c1ccc(S(=O)(=O)N2CCN(C3CCCC3)CC2)cc1	9%
COc1ccc(NS(=O)(=O)c2cc(NC(=O)[C@H](C)NC(N)=O)ccc2N2CCCC2)cc1	-18%
Cc1ccc(C(=O)NC=C(Cl)Cl)cc1	-13%
CC(=O)c1ccc(OCC(O)Cn2nnc3ccccc32)cc1 (stereo unspecified)	16%
COc1ccc(C2=CC(c3cc(OC)c(OC)c(OC)c3)NC(=S)N2)cc1 (stereo unspecified)	-12%
Cc1cc(OCC(=O)NC(Cc2c[nH]c3ccccc23)C(=O)O)ccc1Cl (stereo unspecified)	8%
CCOc1cc(S(=O)(=O)NCc2ccc3c(c2)OCO3)ccc1F	13%
CCOc1ccc(/C=C/C(=O)Nc2ccc3nc(N(CC)CC)cc(C)c3c2)cc1OC	-11%
Cc1ccc(NC(=O)N2CCN(Cc3nc4ccc(C)cc4o3)CC2)c(Cl)c1	6%
CCOC(=O)c1c(-c2ccccc2)oc2ccc(NS(=O)(=O)c3ccccc3)cc12	-15%
Cc1cc(NC(=O)COC(=O)c2ccc(OC(F)(F)F)cc2)no1	-16%
Cc1ccccc1NC(=O)COc1ccc(S(=O)(=O)N2CCCC2)cc1C	11%
COc1cc(C(=O)Nc2cc3c4c(c2)CC(=O)N4CCC3)cc(OC)c1OC	-25%
COc1ccc(N(CC(=O)Nc2cc(OC)cc(OC)c2)S(=O)(=O)c2c(C)noc2C)cc1	11%
CCn1cnc2c1c(=O)n(Cc1csc(-c3ccccc3)n1)c(=O)n2Cc1ccccc1	1%

Remaining list, next part
Compound	VDR inhibitor
CC1CCN(S(=O)(=O)c2ccc3[nH]cc(C(=O)NCCN4CCOCC4)c(=O)c3c2)CC1	0%
COc1cc(C(=O)Nc2ccc(NC(=O)c3ccc(C(C)(C)C)cc3)cc2)cc(OC)c1OC	-8%
O=[N+]([O-])c1ccc(Cl)c(S(=O)(=O)Nc2ccc(-c3ccc(N4CCCC4)nn3)cc2)c1	-1%
O=C(Cc1ncc(C(F)(F)F)cc1Cl)Nc1ccc(F)cc1	5%
O=C(NC(=S)Nc1ccc2c(c1)OCCO2)c1cccc(Br)c1	-8%
CCOc1ccc(N(CC(=O)NCCc2ccccc2)C(=O)CCC(=O)Nc2cc(C)ccn2)cc1	-14%
O=C(c1cc(COc2ccccc2)on1)N1CCCC(OCc2cccnc2)C1 (stereo unspecified)	-20%
CCOC(=O)CCNC(=O)CNC(=O)OCc1ccccc1	2%
CC(=O)c1ccc(S(=O)(=O)NCCCC(=O)N(C)Cc2ccc3c(c2)OCO3)cc1	-3%
CCN(Cc1nc2cc(Cl)ccc2c(=O)[nH]1)C(=O)c1cccc(OCc2c(C)noc2C)c1	-19%
CN(c1ccc([N+](=O)[O-])cc1C(=O)Nc1ccccc1)C1CCCCC1	5%
CC(=O)Nc1ccc(C(=O)NNS(=O)(=O)c2ccc(C)cc2)cc1	16%
c1ccc(-c2ccc(-c3csnn3)cc2)cc1	-12%
COc1cc(C2OC(=O)C3C(c4ccc(OC(C)=O)c(OC)c4)OC(=O)C23)ccc1OC(C)=O (stereo unspecified)	-4%
C#CCOCCOCCOCCNc1nc(N2CCOCC2)nc(N2CCN(C(=O)CCCCCCCCCCNC(=O)[C@H](CO)n3cc(CCCSC)nn3)CC2)n1	-13%

Remaining list, next part:
Compound	VDR inhibitor
O=C1Nc2ccccc2C12OCCCCO2	-8%
CCCNS(=O)(=O)c1ccc(CCC(=O)NCc2cccnc2)cc1	-16%
O=Cc1c(NCc2ccccc2F)c2ccccc2[nH]c1=O	-9%
O=C(Nc1ccccc1C(=O)Nc1ccncc1)c1cccc([N+](=O)[O-])c1	6%
CCOC(=O)N1CCN(C(=O)C(CC)n2nc(C)c3sc4ccccc4c3c2=O)CC1 (stereo unspecified)	-10%
CCC(C(=O)N1CCN(c2ccccn2)CC1)n1nc(C)n2c(cc3occc32)c1=O (stereo unspecified)	9%
CN(C)C(=O)c1ccc(NC(=O)c2ccccc2Sc2ccccc2C#N)cc1	-9%
Cc1c(C(=O)Nc2ccc(Cl)cc2)c2ccccn2c1CCc1ccncc1	1%
CCOc1cc(C(=O)Nc2cc3c(cc2N2CCCC2)n(C)c(=O)n3C)cc(OCC)c1OCC	15%
COC(=O)c1cc(-c2c[nH]c3ccccc23)n[nH]1	-9%
Cc1ccc(NC(=O)/C(=C\c2cccnc2)NC(=O)c2ccccc2)cc1	2%
COC(=O)[C@H](COC(C)(C)C)NC(=O)O[C@H]1C(=O)c2cc(OC)ccc2O[C@@H]1c1ccc(OC)c(Br)c1	0%
Cc1ccc(-c2nnc(SCC#N)n2N)cc1	-8%
Cc1ccc(C(=O)CC(Nc2ccc(F)cc2)c2ccccc2)cc1 (stereo unspecified)	-3%
CCOc1ccc(-c2nonc2NC(=O)c2oc3ccc(C)cc3c2C)cc1OCC	15%

Ordered by length of the SMILES (high to low): some entries from above
Compound	VDR inhibitor
COC(=O)[C@H](COC(C)(C)C)NC(=O)O[C@H]1C(=O)c2cc(OC)ccc2O[C@@H]1c1ccc(OC)c(Br)c1	0%
CCOC(=O)N1CCN(C(=O)C(CC)n2nc(C)c3sc4ccccc4c3c2=O)CC1 (stereo unspecified)	-10%
O=C(Nc1ccccc1C(=O)Nc1ccncc1)c1cccc([N+](=O)[O-])c1	6%
CN(C)C(=O)c1ccc(NC(=O)c2ccccc2Sc2ccccc2C#N)cc1	-9%
O=Cc1c(NCc2ccccc2F)c2ccccc2[nH]c1=O	-9%
Cc1ccc(-c2nnc(SCC#N)n2N)cc1	-8%

Carrying on:
Compound	VDR inhibitor
N#C/C(=C/c1ccc(-c2cc([N+](=O)[O-])ccc2Cl)o1)C(N)=O	5%
CCOC(=O)c1cc(NC(=O)N2CCOCC2)c(C)nc1C	0%
CC(C)n1cc(/C=N\NC(=O)c2cc3c(ccc4ccccc43)o2)c2ccccc21	-7%
COCCn1c(SCC(=O)NC(=O)NC2CCCC2)nc2ccccc2c1=O	1%
Cc1nnc(SCc2cc([N+](=O)[O-])cc3c2OCOC3)[nH]c1=O	17%
CSc1nsc(SCC(=O)Nc2cccc(C(C)=O)c2)n1	-1%
CCOC(=O)c1nnn(C(CC)C(=O)Nc2ccc(F)cc2)c1C(=O)OCC (stereo unspecified)	-28%
COC(=O)CCCCC(=O)OC	-11%
O=C(NCc1ccc(OC(F)(F)F)cc1)c1cc(-c2ccccc2)nn1CC1CC(c2cccnc2)=NO1 (stereo unspecified)	13%
COc1ccc(CNC(C)C(=O)Nc2ccc3ccccc3c2)cc1OC (stereo unspecified)	6%
Cc1ccc(C(=O)N[C@H](C(=O)N2CCN(c3ccccc3F)CC2)C(C)C)cc1	-12%
O=C(COC(=O)c1cc(-c2ccc(F)cc2)nc2ccccc12)NCC1CCCO1 (stereo unspecified)	31%[activator]
CCC(=O)N(CCO)Cc1cc2ccc(C)c(C)c2[nH]c1=O	-24%
N#Cc1cnc(SCC(=O)Nc2ccccc2C(F)(F)F)nc1N	0%
Cc1ccc(C)c(S(=O)(=O)N(C)c2ccc(OC(=O)C3CCN(C(=O)Nc4ccccc4)CC3)cc2)c1	2%

Shown as labelled records: entries from further up.
SMILES: CC(C)n1cc(/C=N\NC(=O)c2cc3c(ccc4ccccc43)o2)c2ccccc21
  VDR inhibitor: -7%
SMILES: COCCn1c(SCC(=O)NC(=O)NC2CCCC2)nc2ccccc2c1=O
  VDR inhibitor: 1%

(list continues)
Compound	VDR inhibitor
CCC(C)NC(=O)CSc1nc2ccsc2c(=O)n1-c1ccc(OC)cc1 (stereo unspecified)	-6%
O=C(CCc1nnc(CCc2ccccc2)o1)N1CCCC1c1nccs1 (stereo unspecified)	-29%
NC(=O)c1ccsc1NC(=O)CN1C(=O)C2CC=CCC2C1=O (stereo unspecified)	5%
O=C(NC1CCCCC1)NC1CCN(CC(=O)N2CCOCC2)CC1	9%
Cc1cc(Nc2cccc(Cl)c2)nc2ccc(NC(=O)c3ccc(F)cc3Cl)cc12	10%
O=C(CCCc1ccccc1)Nc1ccnn1C1CCN(Cc2ccccn2)CC1	-2%
CC(C(=O)Nc1ccccc1Br)N1c2cccc3cccc(c23)S1(=O)=O (stereo unspecified)	17%
CC1CCCCN1Cc1c(O)ccc2c(=O)c(-c3ccccc3)coc12 (stereo unspecified)	-5%&-8%
C/C(N)=C(/C#N)C(=O)COC(=O)CCSc1ccccc1	15%&-7%
Nc1nnc(SCC(=O)NNC(=O)c2ccc([N+](=O)[O-])cc2)s1	-2%
CC(=O)OCCCN(C)CC/C=C1/c2ccccc2CSc2ccccc21	-11%
CCc1cccc(C)c1NC(=O)CN(C)Cc1ccccc1F	-12%
O=C(CNS(=O)(=O)c1c(F)cc(F)cc1Br)OCC(=O)N1CCCC1=O	-17%
Cc1ccc(C)c(S(=O)(=O)c2c[nH]c(=S)[nH]c2=O)c1	-27%
CC1CCN=C(N)S1 (stereo unspecified)	-6%&8%

Carrying on:
Compound	VDR inhibitor
CC(C)CC1(C(=O)NCCc2c[nH]c3ccccc23)C=CCN1C(=O)c1ccccc1 (stereo unspecified)	?
Cc1cccc(C)c1NC(=O)CCCSc1nnc(-c2ccco2)n1-c1ccccc1	0%
Cc1nn(CC(=O)NCCc2ccc(Cl)cc2)c(=O)c2cc3cc(F)ccc3n12	6%
COc1ccc(OC)c(N2CC(O)=C(c3nc4ccccc4s3)C2=N)c1	2%
Cc1[nH]n(-c2ccccc2)c(=O)c1N=Nc1ccc(F)cc1	11%
COc1ccc(-n2nnnc2SCC(=O)Nc2cc(OC)c([N+](=O)[O-])cc2C)cc1	-11%
CCC(C)(C)NC(=O)CN(Cc1ccccc1)C(=O)CCC(=O)Nc1nccs1	-10%
CCN(C[C@H]1N[C@@](C)(C(=O)OC)[C@H]2C(=O)N(Cc3ccccc3)C(=O)[C@@H]12)S(=O)(=O)c1ccccc1	-20%
Cc1cccc(C)c1OCC(=O)N1CC2(C)CC1CC(C)(C)C2 (stereo unspecified)	14%
CC1CCN(S(=O)(=O)c2ccc3nc(Nc4cccc(F)c4)ccc3c2)CC1	-5%
Cc1cc(C)c(NC(=O)C(C)n2nnc3sc4c(c3c2=O)CCCC4)c(C)c1 (stereo unspecified)	-5%
O=C(CCn1c(=S)oc2ccccc21)Nc1ccccc1F	12%
COc1ccc(/C(C)=N\NC(=O)c2ccc(-c3ccccc3)cc2)c(F)c1	-24%
CC(=O)N/C(=C\c1ccccc1)C(=O)OC/C=C/c1ccccc1	13%
CCc1ccc(NC(=O)CN2C(=O)C(c3ccc(F)cc3)=NC2(C)C)cc1	2%

Further entries.
Compound	VDR inhibitor
COc1ccc(NC(=O)C2CC(c3ccc(Cl)cc3)=NO2)cc1 (stereo unspecified)	-8%
Cc1cc(C(=O)C(C)OC(=O)c2ccc(NC(=O)CC#N)cc2)c(C)n1-c1ccccc1 (stereo unspecified)	17%
NC(N)=NS(=O)(=O)c1ccc(NC(=S)NC(=O)/C=C/c2ccco2)cc1	6%
Fc1ccc(-c2nnc(-n3nnc4ccccc43)c3ccccc23)cc1	-13%
Cc1onc(-c2ccccc2Cl)c1C(=O)Nc1nnc(-c2cccc([N+](=O)[O-])c2)s1	7%
COc1ccccc1C(=O)COC(=O)Cn1nc(C)c([N+](=O)[O-])c1C	11%
COC(=O)C(C)(C)ONC(=O)Nc1ccc(C)cc1	5%
COc1ccccc1NC(=S)NCc1ccc(Cl)cc1	-13%
CC(C)(C)c1ccc(-c2csc(NNC3=NCCCCC3)n2)cc1	?
Cc1nn(S(=O)(=O)c2cccc([N+](=O)[O-])c2)c(C)c1S(=O)(=O)N1CCOCC1	-5%
C=CC[C@@H](CC(=O)N[C@H](CO)Cc1ccccc1)C(=O)NCCOC(=O)[C@@H](CC=C)CC(=O)OC(C)(C)C	4%
COc1ccc2c(c1)c(CC(=O)O)c(C)n2Cc1ccc(Cl)cc1	-26%
COc1ccc(S(=O)(=O)N2CCN(c3ccc(F)cc3)CC2)cc1OC	-19%
Cc1ccc(C(=O)N/C(=C\c2ccccc2)C(=O)NCC2CCCO2)cc1 (stereo unspecified)	-16%
CCC(C)CCN1C(Nc2ccccc2)=NC[C@@H]1C (stereo partly specified)	1%

(cont.)
Compound	VDR inhibitor
O=C(CSc1ncn[nH]1)NNC(=O)c1ccccc1	3%
COc1ccc(OC)c(C(=O)CSc2nc3cccnc3n2C)c1	-1%
Nc1nc(-c2cccnc2)nn1C(=O)CCc1ccccc1	-1%
Cc1ccc(C(=O)Nc2ccc(C(=O)O)cc2)cc1S(=O)(=O)Nc1ccccc1	7%
C[C@]12CC[C@@H]3c4ccc(O)cc4C[C@@H](CCCCCCCCCS(=O)CCCC(F)(F)C(F)(F)F)C3[C@@H]1CC[C@@H]2O (stereo partly specified)	-2%
COc1ccc(C(=O)OCc2nnc(-c3ccccc3)o2)cc1S(=O)(=O)N1CCOCC1	0%
O=C(OCC(=O)N1CCCc2ccccc21)c1cc(Br)ccc1O	-4%
Cc1ccc(Cl)cc1NC(=O)CN1C(=O)c2ccccc2Sc2ncccc21	-1%
Cc1csc2cc(-c3cccc([N+](=O)[O-])c3)c(-c3cccc([N+](=O)[O-])c3)c[n+]12	3%
COc1ccccc1NS(=O)(=O)c1ccc(C(=O)NCCCn2ccnc2)cc1	-7%
COc1cccc(-n2nc(C(=O)Nc3ccc4c(c3)OCO4)c3ccccc3c2=O)c1	-9%
COc1cccc(SCc2noc(C(=O)NCCN(C)C)c2C(=O)NCCN(C)C)c1	-7%
CCn1c(N)nc2c1c(=O)n(C)c(=O)n2C	0%
CCOc1cc(C2C(C(N)=O)=C(C)Nc3ncnn32)cc(Br)c1O (stereo unspecified)	14%

Not all compounds are listed, so the mix of outcomes need not match the whole.
